# High-throughput results from PubChem BioAssay.
# YopH inh: blocks Yersinia enterocolitica YopH tyrosine phosphatase; fluorescence Ex485/Em525; inhibition, %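 (about 10 µM by stock and volumes)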; hit rate 0.16% among 140,000; AID 898;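 active = inhibition of 50% or more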;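 also: controls were vehicle for no effect and minimum signal wells for full effect; inactives centre near -20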
# Mtb bLac sens: beta-lactam sensitization of Mtb H37Rv; M. tuberculosis H37Rv growth with meropenem, percent inhibition; hits of this screen are not shown here; inhibition, % at 25 µM; hit rate 0.27% among 330,000;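 active = about 74% or more and at least 40 points above the plate without the antibiotic, then above 30% in a dose series; inconclusive = first-round hits that could not be retested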;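 also: growth measured after seven days incubation then overnight dye step; 0% = bacteria only wells and 100% = bacteria with antibiotic; twin plates without the antibiotic show which effects depend on it; some results filed as inactive read as strong as hits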
# Mtb growth: M. tuberculosis H37Rv growth inhibitors, H37Rv strain (AID 1626). M. tuberculosis H37Rv growth inhibition; higher % means a stronger effect. one-dose inhibition, % at 10 µM; IC50 in µM for titrated hits. hit rate 0.95% among 220,000;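 active = confirmed in a dose series; inconclusive = inhibition above 80% but not taken into the dose series; inactive = below 80% or under 30% at every dose of the series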;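 also: bacteria incubated seven days before Alamar blue readout; 0% = bacteria only wells and 100% = bacteria with antibiotic wells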
# RecA splice inh: blocks M. tuberculosis RecA intein splicing | P9WHJ3 | cell-free RecA intein splicing, fluorescence | inhibition, %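 (about 9 µM by stock and volumes)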 | hit rate 0.75% among 290,000; in the data active = inhibition above about 30%; inconclusive = no clear call, values can overlap the other calls;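 also: 0% = vehicle wells and 100% = reference inhibitor control wells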
# Target sequence (P9WHJ3 whole entry, looked up, canonical isoform): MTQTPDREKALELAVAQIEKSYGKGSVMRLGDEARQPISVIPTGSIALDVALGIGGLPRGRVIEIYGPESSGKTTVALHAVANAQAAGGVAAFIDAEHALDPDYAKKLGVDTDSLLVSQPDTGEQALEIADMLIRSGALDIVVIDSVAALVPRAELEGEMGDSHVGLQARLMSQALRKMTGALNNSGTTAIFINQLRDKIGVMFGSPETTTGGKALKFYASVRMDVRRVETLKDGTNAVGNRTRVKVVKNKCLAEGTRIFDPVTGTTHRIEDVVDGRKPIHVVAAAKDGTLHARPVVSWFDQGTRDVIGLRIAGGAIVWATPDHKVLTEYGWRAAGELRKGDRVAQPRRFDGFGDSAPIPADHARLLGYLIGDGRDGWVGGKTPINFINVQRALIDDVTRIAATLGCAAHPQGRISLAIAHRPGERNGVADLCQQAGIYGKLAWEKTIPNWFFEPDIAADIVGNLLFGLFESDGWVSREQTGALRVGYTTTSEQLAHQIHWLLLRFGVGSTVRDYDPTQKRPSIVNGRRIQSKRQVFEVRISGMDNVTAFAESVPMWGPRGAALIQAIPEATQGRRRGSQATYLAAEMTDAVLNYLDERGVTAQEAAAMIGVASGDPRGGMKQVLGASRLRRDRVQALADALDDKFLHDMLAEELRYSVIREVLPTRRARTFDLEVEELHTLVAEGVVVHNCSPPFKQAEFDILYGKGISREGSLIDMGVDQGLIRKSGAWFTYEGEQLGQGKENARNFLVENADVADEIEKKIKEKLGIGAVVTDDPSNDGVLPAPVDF
# Arbovirus anti: antivirals against arbovirus infection; inhibition, % at 10 µM; hit rate 0.37% among 200,000; arbovirus infection cell-based antiviral screen;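 active = inhibition from about 30%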;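 also: bluetongue infection of BSR cells; cell survival read as ATP light after 72 h; 0% = infected wells without compound and 100% = uninfected wells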
# Arbovirus anti repeat: further read-out of Arbovirus anti, marked with its call; inhibition, %; measured here: 10K subset replicate screen; many hits read low in the repeat;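 first of two repeat runs on a subset; 0% = infected and 100% = uninfected wells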
# * = called active by the depositor; ? = inconclusive; . = no result given. These rows are one share of the data; the hit share may differ from the screen's.
# Sample of the layout (two entries):
SMILES,YopH inh,Mtb bLac sens,Mtb growth,RecA splice inh,Arbovirus anti,others
Fc1ccc(C2CCNCC2COc2ccc3c(c2)OCO3)cc1 (configuration not stated),.,?,.,-0.7,.,
CCOC(=O)CN1C(=O)CCSc2ccc(Cl)cc21,.,-3,1%,-0.5,1,

# This part in full, previewed entries included:
SMILES,YopH inh,Mtb bLac sens,Mtb growth,RecA splice inh,Arbovirus anti,others
Fc1ccc(C2CCNCC2COc2ccc3c(c2)OCO3)cc1 (configuration not stated),.,?,.,-0.7,.,
CCOC(=O)CN1C(=O)CCSc2ccc(Cl)cc21,.,-3,1%,-0.5,1,
Cc1cc(C)n(CCCNC(=O)C2CCC(=O)N(CCc3ccc(Cl)cc3)C2)n1 (configuration not stated),.,-13,.,3.9,.,
COC(=O)c1c(C)oc(C)c1S(=O)(=O)NCc1ccc(Cl)cc1Cl,.,-8,-6%,2.3,.,
Cc1[nH]c(=S)n(CC2CCCO2)c1C (configuration not stated),-28,-11,-14%,-0.5,-3,
COc1cccc(N2CCN(C(=O)c3oc4ccccc4c3NC(=O)CCc3cc(OC)no3)CC2)c1,.,3,.,-1.6,.,
O=S(=O)(c1ccc2c(c1)nc(COc1ccc(Cl)cc1)n2CC1CCCO1)N1CCOCC1 (configuration not stated),-37,-1,-1%,1.4,-17,
C[C@H](NC(=O)C1CC(=O)N(c2ccc3c(c2)OCO3)C1)C(=O)NCc1ccco1 (some centres not stated),.,-4,.,-0.1,.,
Cc1c(Cl)cccc1NC(=O)NCc1ccc(C)n1C,.,6,.,-1.4,.,
Cc1noc(C)c1C(=O)Nc1ccc(F)cc1,.,3,-5%,-1.9,0,
CC(=O)Nc1ccc(NC(=O)C(C)O/N=C/c2cccc([N+](=O)[O-])c2)cc1 (configuration not stated),-18,0,-5%,-2.1,-4,
O=S(=O)(NCc1ccccn1)c1ccc(Cl)c(C(F)(F)F)c1,.,27,-1%,-1.2,-1,
COc1ccccc1NC(=O)Cn1nc(Cc2cccnc2)c2ccccc2c1=O,.,0,-5%,2.6,.,
OC(c1ccccc1)(c1ccccc1)c1ccn[nH]1,.,0,.,-2.5,.,
CC(C)Cn1nc(NS(=O)(=O)c2ccccc2)c2cc3ccccc3nc21,-5,-8,-2%,-2.6,4,
CC(=O)Oc1cccc(C(=O)Nc2ccccc2C(=O)N2CCCC2)c1,.,0,.,0.6,.,
Cn1cc(/C=C2/SC(=O)N(c3ccccc3)C2=O)c2ccccc21,-44,-2,.,2.5,-11,
Cc1cccc(NC(=O)C2SC(=Nc3c(C)cccc3C)C(C(=O)N3CCOCC3)=C2N)c1 (configuration not stated),-6,-2,-2%,18,1,
Cc1cc(C(=O)O)c(CSCc2cc(C(=O)O)oc2C)o1,-35,7,-10%,1.4,-3,
Cc1ccc2nc(SC(C)C(=O)NCc3ccc4c(c3)OCO4)[nH]c2c1 (configuration not stated),-19,-4,-1%,1.1,-5,

# An excerpt from above in order of heavy-atom count, lowest first:
SMILES,YopH inh,Mtb bLac sens,Mtb growth,RecA splice inh,Arbovirus anti,others
CCOC(=O)CN1C(=O)CCSc2ccc(Cl)cc21,.,-3,1%,-0.5,1,
COC(=O)c1c(C)oc(C)c1S(=O)(=O)NCc1ccc(Cl)cc1Cl,.,-8,-6%,2.3,.,
CC(=O)Oc1cccc(C(=O)Nc2ccccc2C(=O)N2CCCC2)c1,.,0,.,0.6,.,
CC(=O)Nc1ccc(NC(=O)C(C)O/N=C/c2cccc([N+](=O)[O-])c2)cc1 (configuration not stated),-18,0,-5%,-2.1,-4,
C[C@H](NC(=O)C1CC(=O)N(c2ccc3c(c2)OCO3)C1)C(=O)NCc1ccco1 (some centres not stated),.,-4,.,-0.1,.,
Cc1cccc(NC(=O)C2SC(=Nc3c(C)cccc3C)C(C(=O)N3CCOCC3)=C2N)c1 (configuration not stated),-6,-2,-2%,18,1,

# The results go on.
SMILES,YopH inh,Mtb bLac sens,Mtb growth,RecA splice inh,Arbovirus anti,others
COc1ccc(-c2cc(C(=O)N/N=C/c3cccnc3)c3ccccc3n2)c(OC)c1,.,0,.,-0.8,.,
COc1ccc(CCN(C)CC(=O)Nc2ccc(F)c(Cl)c2)cc1OC,.,-10,.,4.3,.,
COc1cc2c(cc1OC)CN(C(=O)CCOc1ccccc1C)CC2,.,1,.,1.9,.,
CCC(=O)N1CCN(c2ccc(NC(=O)c3ccc4c(c3)OCO4)cc2)CC1,-30,-1,-7%,-1.5,-40,
COc1cc2ccccc2cc1C(=O)Nc1cccnc1,-16,2,8%,3.2,8,
CCOC(=O)C1CCCN(Cc2c(C(=O)N3CCCCC3)nc3c(C)cccn23)C1 (configuration not stated),.,0,3%,-0.1,9,
O=C(Nc1cccc2c1[nH]c1ccccc12)C(F)(F)F,-29,4,-5%,1.2,-8,
COCCc1ncc(CN2CCCCC2C(=O)Nc2ccc(Oc3ccccc3)nc2)cn1 (configuration not stated),.,-7,.,-2.6,.,
O=C(NCCc1ccccc1)C1CCC(CNS(=O)(=O)c2cccc3cccnc23)CC1 (configuration not stated),.,-4,10%,-0.3,.,
O=C(Nc1cccc(C(=O)O)c1)/C(=C\c1ccc2c(c1)OCO2)NC(=O)c1ccc(Br)cc1,.,1,1%,-0.5,9,
CCCNS(=O)(=O)c1ccc(OCC(=O)NCCCOC)cc1,-19,-1,-4%,-1.5,-3,
Cc1ccc(SCC(=O)NC(=O)NC(C)C)c(C)c1,.,2,12%,4.7,-2,
CCCCN(C(=O)CSCC(=O)Nc1ccc(C)cc1)c1c(N)n(CCCC)c(=O)[nH]c1=O,.,-11,.,0.8,.,
COc1cccc(-c2nc3ccc(C(=O)NC(C)Cc4cccnc4)cc3o2)c1 (configuration not stated),.,22,.,1.9,.,
COc1ccc(NCc2nnc(SCC(=O)NCc3ccccc3)n2-c2ccccc2OC)cc1,-6,-3,7%,-1.6,5,
CC1(C)CC(=O)C(C2(O)C(=O)NC(=O)NC2=O)=C(O)C1,22,8,-4%,95*,-1,
Cc1cc(N2CCC(C)CC2)nc(-c2ccccc2O)n1,.,-1,-2%,3.7,.,
N#C/C(=C\c1ccccc1[N+](=O)[O-])C(=O)NC1CCCCC1,.,5,-4%,19,9,
COC(=O)c1ccc(NC(=O)CSCc2ccc(C)cc2)cc1,-15,90,71%,-1.9,-3,
C[C@@]12C(=O)N(CCO)CC(=O)N1[C@H](/C=C/c1ccccc1)[C@@H]1C(=O)N(c3ccccc3)C(=O)[C@@H]12,.,-7,.,0.0,.,
COc1ccc(OC)c(CCNC(=O)Cn2nc(C)c3c(C)n(-c4ccc(C)cc4)nc3c2=O)c1,.,3,.,-0.1,.,
CC(C)c1onc(C(=O)N2CCN(Cc3ccccc3)CC2)c1[N+](=O)[O-],-19,-1,-3%,-0.5,2,
CSc1ccccc1OCc1cc(C(=O)NC(C)Cn2cncn2)no1 (configuration not stated),.,-4,.,3.6,.,
COc1ccc(C(CNC(=O)c2cccc(S(=O)(=O)NCc3ccccc3)c2)N(C)C)cc1 (configuration not stated),.,-11,.,-1.2,.,
Cc1cc(C)cc(-n2ncc3c2CCCC3NC(=O)c2cc(C)oc2C)c1 (configuration not stated),.,1,.,4.1,.,
Cc1cc(C(=O)COc2ccc(-c3nnco3)cc2)c(C)n1Cc1ccccc1,-16,21,0%,7.9,1,
Cn1c(NCc2cccnc2)nc2c1c(=O)n(Cc1ccccc1F)c(=O)n2C,-23,-28,1%,-2.6,2,
c1ccc2c(c1)nc(N1CCN(C3CCCCC3)CC1)c1nnnn12,-22,.,-2%,.,-3,
CCc1ccc2c(c1)C(c1ccc([N+](=O)[O-])cc1)=NNC(c1ccc(Br)cc1)=N2,32,60,46%,1.5,-13,
CCc1ccc(-c2cc(C)no2)cc1S(=O)(=O)N1CCN(c2cc(C)ccc2C)CC1,.,-1,.,-2.8,.,
c1ccc(Cn2nnnc2C(c2cccs2)N2CCSCC2)cc1 (configuration not stated),16,4,1%,2.7,3,
Cc1cc([N+](=O)[O-])ccc1NC(=O)CCC(=O)N1CCCCCC1,.,-9,.,0.2,.,
COc1ccc(/C=N\N=C2/SC(CC(=O)O)C(=O)N2c2ccc(O)cc2)cc1OC (configuration not stated),-25,4,-2%,-1.3,1,
O=c1c2ccccc2nc(SCc2cc(=O)n3ccsc3n2)n1CCCO,-9,.,-6%,.,-4,
Cc1ccc(C(=O)N2CC(=O)Nc3ccc(F)cc3C2c2ccc(F)cc2)cc1 (configuration not stated),.,6,.,6.5,.,
CC1=N/C(=C\c2ccc([N+](=O)[O-])cc2)C(=O)N1c1ccc(Cl)cc1,-7,8,2%,0.2,4,
COC(=O)CSc1nnc(C)c(=O)[nH]1,-16,2,2%,1.2,-3,
Cc1ccc(NC(=O)COC(=O)c2cccc(N3C(=O)c4ccccc4C3=O)c2)cc1,.,3,-11%,-0.2,.,
O=C(CSc1n[nH]c(-c2cccs2)n1)NCCc1ccccc1,.,71,.,3.6,.,
Cc1ccc(C(=O)NC2CCN(C(=O)Nc3ccc(F)cc3)CC2)cc1,.,-3,.,-2.2,.,
O=C(Nc1nccs1)C1CCN(S(=O)(=O)c2ccc3c(c2)OCCCO3)CC1,-23,2,-5%,-0.2,9,
COc1ccc(C(=O)Nn2c(C)nc3ccccc3c2=O)cc1[N+](=O)[O-],.,-7,.,-1.3,.,
CN1CCN(C(=O)C2=C[C@H](c3coc4ccccc4c3=O)C[C@H](OCc3ccc(CO)cc3)O2)CC1,.,-6,-7%,-2.6,3,
Cc1oc2cc(O)ccc2c(=O)c1N1C(=O)c2ccccc2C1=O,-4,-39,-15%,1.4,1,Arbovirus anti repeat=0
CCc1ccccc1N(CC)C(=O)c1cn(C)c(=O)c2cc(OC)c(OC)cc12,-1,-4,-9%,0.5,6,
CC(C)N1CCN(Cc2ccc(C#CCCO)cc2)CC1CCO (configuration not stated),.,-6,4%,-1.5,-3,
CCCCOCCCNS(=O)(=O)c1ccccc1,-40,11,-4%,1.0,4,
CCS(=O)(=O)n1nc(-c2ccc(Cl)cc2)nc1SC,-36,30,4%,5.7,4,
Cc1ccc(NC(=O)COc2ccccc2C(=O)Nc2ccccc2)cc1Cl,-11,-6,6%,0.7,10,
CC1CCCCN1S(=O)(=O)c1ccc(S(=O)(=O)NCCc2ccncc2)cc1 (configuration not stated),-22,10,16%,-3.6,2,
O=C(CN(c1ccc(F)cc1)S(=O)(=O)c1ccc2c(c1)OCCO2)NCc1ccccn1,-49,3,-8%,-0.4,-8,
O=C1COc2ccc(S(=O)(=O)CCC(=O)N3CCN(c4cccc(Cl)c4)CC3)cc2N1,.,-2,.,-0.6,.,
Cc1cc2ccccc2nc1SCC(=O)NC1CCCCC1,.,2,-10%,4.0,7,
Cc1c(C(=O)N2CC(C)OC(C)C2)sc2nc(-c3ccccc3)cn12 (configuration not stated),-4,-17,.,-2.2,0,
CCC(=O)Nc1ccc(C(=O)NCc2ccccn2)cc1,.,4,6%,1.5,-1,
COc1cccc(C(=O)Nc2nnc(S(=O)(=O)N3CCOCC3)s2)c1,.,11,.,-3.4,.,
OCC1(CCCc2ccccc2)CCN(C2CCSCC2)CC1,.,1,-8%,-0.8,-6,
O=C(Cc1c[nH]c2ccccc12)N1CCN(c2ccccc2)CC1,.,-1,6%,-3.6,7,
COc1ccccc1CNC(=O)C(=O)NCC1OCCCN1S(=O)(=O)c1ccc(F)cc1C (configuration not stated),.,-7,.,1.0,.,
CC(C)OCCCNc1nc2c(-c3ccccc3)nnn2c2ccccc12,-31,-4,.,-5.2,-9,
# Next section.
SMILES,YopH inh,Mtb bLac sens,Mtb growth,RecA splice inh,Arbovirus anti,others
COc1ccc(S(=O)(=O)N(c2onc(C)c2Cl)S(=O)(=O)c2ccc(OC)c(OC)c2)cc1OC,-36,7,-10%,1.3,11,
CC(=O)C1=C(C)NC(=S)NC1c1cc([N+](=O)[O-])ccc1O (configuration not stated),.,3,-11%,1.9,.,
CC(NC(=O)Cn1nc(-c2ccccc2)c2ccccc2c1=O)c1ccccc1 (configuration not stated),-4,41,-2%,1.6,-7,
COc1ccc(-n2cnnc2)cc1,-52,-3,-2%,-2.0,-4,Arbovirus anti repeat=1
CCCN1Cc2cccc(C(=O)NC(CC(=O)OCC)c3ccc(OC(C)C)cc3)c2C1=O (configuration not stated),.,-3,21%,0.8,-4,
O=C(CNC(=O)c1ccc2c(c1)OCCO2)N/N=C/c1ccc(Cl)cc1,.,1,-5%,0.0,13,
O=C(Cc1ccsc1)NCC(c1ccco1)N1CCCCC1 (configuration not stated),-13,8,-4%,1.5,2,
CC1=N/C(=C\c2ccc([N+](=O)[O-])cc2)C(=O)N1c1ccc(Br)c(C)c1,-18,0,4%,-1.9,15,
CCCCOc1ccc(N(CC(=O)NC2CCCCC2)C(=O)CCC(=O)Nc2ccccn2)cc1,.,3,.,0.0,.,
COc1ccc(NC(=O)/C=C/C(=O)O)cc1Cl,-30,92,62%,-0.6,4,
Cc1c(/C=N/NC(=O)C(C)(C)Oc2ccc(Cl)cc2)cnn1C,-11,.,-3%,0.5,-10,
